# Screening results (PubChem BioAssay)
# PAX8 reporter = inhibitors of PAX8-driven TPO luciferase reporter, primary screen, RMG-I cells, single concentration; SteadyGlo, 24 h; inhibition, % at 12.6 µM; hit rate 1.2% among 360,000;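 active = mean replicate inhibition at least 60% with every replicate also reaching 60%; inconclusive = only one of the two criteria is met; inactive = mean below 60% and not all replicates reaching 60%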;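 note: luciferase light reporting Pax8 driven TPO promoter activity; plate controls were median of neutral control wells for no effect and mitoxantrone controls for full effect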
# DENV2 CPE rescue = inhibitors of DENV2 cytopathic effect, primary screen, cell-based, plate reader, single concentration | DENV2-infected cells, cytopathic effect rescue | CPE inhibition, % at 9.99 µM | hit rate 1.7% among 350,000 | AID 651640, 2012; in the data active = CPE inhibition above about 20%, passing the limit was not always enough; inconclusive = no clear call, values can overlap the other calls; tested in BHK-21 cells;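 note: 0% = median of neutral control wells and 100% = median of positive control wells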
# EWS-Fli inh = EWS/Fli-driven NR0B1 reporter inhibitors, primary screen, A673 cells, NR0B1 luciferase, luminescence, MLPCN library | viability-normalised | inhibition, % at 12.6 µM | hit rate 0.67% among 350,000 | AID 651661, 2012;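 active = mean inhibition of at least 50% after viability correction, with every replicate also passing that limit; inconclusive = mean reaches 50% but only one of two replicates passes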;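 note: firefly luciferase signal divided by Alamar Blue viability fluorescence both relative to DMSO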
# LGR2 inh = inhibitors of bursicon-induced LGR2 CRE-luciferase signal, primary screen, cell-based, HEK293, CRE-luciferase reporter, bursicon stimulation. Drosophila bursicon receptor LGR2 (rickets). bursicon-stimulated, 4 h. inhibition, % at 9.99 µM. hit rate 0.35% among 380,000. AID 720647, 2013;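 active = drop in luminescence signal, shown as inhibition above about 50% in the replicate tests, limit read from the data, passing the limit was not always enough; inconclusive = probably only some replicates passing the limit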;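 note: agonist challenge used bursicon conditioned medium at about half maximal strength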
# CASP6 VEID inh = human caspase-6 inhibitors, primary screen, biochemical, VEID-R110 fluorescence, single point, set 2 | P55212 | purified caspase-6, Z-VEID-R110 cleavage fluorescence | inhibition, % at 12.5 µM | hit rate 0.53% among 350,000;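 active = mean inhibition across replicates at least about 35%, with every replicate also reaching that limit, limit read from the data; inconclusive = only one of the two criteria met; inactive = neither criterion met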;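 note: 0% = median of neutral control wells and 100% = no fluorescence left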
# Target sequence (P55212 24-179 limits assumed): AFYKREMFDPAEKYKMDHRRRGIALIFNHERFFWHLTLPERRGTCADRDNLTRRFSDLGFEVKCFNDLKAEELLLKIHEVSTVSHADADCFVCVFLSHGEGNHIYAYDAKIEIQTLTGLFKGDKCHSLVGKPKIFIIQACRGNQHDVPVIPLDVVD
# Target sequence (P55212 194-293 limits assumed): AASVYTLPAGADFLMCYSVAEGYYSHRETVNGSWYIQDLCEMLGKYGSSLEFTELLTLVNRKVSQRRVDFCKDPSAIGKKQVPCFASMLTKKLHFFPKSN
# SIRT5 block = SIRT5 desuccinylase inhibitors, primary screen, biochemical, fluorescence imaging, single point, set 5; Purified SirT5, succinyl-peptide AMC, trypsin-coupled fluorescence; NAD-dependent protein deacylase sirtuin-5, mitochondrial (Homo sapiens), Q9NXA8; AID 652115, 2013; inhibition, % at 15 µM; hit rate 1.1% among 330,000; in the data active = inhibition above about 15%; inconclusive = no clear call, values can overlap the other calls
# Target sequence (Q9NXA8 whole entry, looked up): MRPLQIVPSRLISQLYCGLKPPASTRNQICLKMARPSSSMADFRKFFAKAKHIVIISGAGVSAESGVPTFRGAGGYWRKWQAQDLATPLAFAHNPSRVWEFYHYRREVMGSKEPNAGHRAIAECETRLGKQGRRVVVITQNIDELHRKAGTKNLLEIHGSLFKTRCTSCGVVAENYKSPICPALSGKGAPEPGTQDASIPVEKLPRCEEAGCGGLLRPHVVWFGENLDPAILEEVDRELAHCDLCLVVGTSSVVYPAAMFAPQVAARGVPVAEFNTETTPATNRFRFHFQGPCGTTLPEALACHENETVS
# The depositor's hits bear a star; ? = inconclusive; . = no result given.
SMILES,PAX8 reporter,DENV2 CPE rescue,EWS-Fli inh,LGR2 inh,CASP6 VEID inh,SIRT5 block
O=c1c(NCCc2ccccc2)c(-c2ccccc2)c1=O,-17.1,10.8,0.8,-0.5,0.7,7.9
O=C(N/N=C/c1ccoc1)c1cc(Br)ccc1O,-40.8,?,.,-3.2,18.0,-0.1
CN(C)CCCNC(=S)NCCNc1nc2cc3c(cc2cc1C#N)OCO3,6.8,2.6,7.0,1.7,-33.7,.
CC(=O)N(C)C[C@H]1Oc2cc(-c3ccc(C#N)cc3)ccc2S(=O)(=O)N([C@@H](C)CO)C[C@@H]1C,.,-12.5,-4.6,18.0,1.1,6.7
CN1CCNC(=O)C1CC(=O)NCCc1ccccc1F (configuration not stated),-11.0,7.5,0.3,10.7,2.8,-1.6
O=C(CSc1nnc2c(Cl)cc(C(F)(F)F)cn12)Nc1ccc2c(c1)OCO2,9.0,.,.,.,.,.
CCN(CC)S(=O)(=O)c1ccc2c(c1)N(CC(=O)NCC1CCCO1)C(=O)CO2 (configuration not stated),3.2,10.0,.,-5.9,-0.7,-0.2
Cc1cc(NC(=O)COc2cccc([N+](=O)[O-])c2)no1,.,-4.5,.,8.8,-2.5,-11.8
Cc1ccc2c(c1)N(C(C)C(=O)NCc1ccccn1)C(=O)CO2 (configuration not stated),15.5,7.9,-1.2,0.0,-1.2,-5.7
O=C1NCC2=C1C(c1ccccc1)Nc1ccccc1N2 (configuration not stated),.,.,.,-7.3,.,.
C[C@@H]1CCCCO[C@H](CN(C)C(=O)NC2CCCCC2)[C@@H](C)CN([C@@H](C)CO)C(=O)c2cc(NC(=O)C3CCCCC3)ccc2O1,38.6,6.1,15.2,17.2,2.3,7.7
COC(=O)c1cc(NC(=O)c2c(Cl)cnn2C)cc(C(=O)OC)c1,45.0,-5.8,3.7,-10.3,4.5,0.1
C[C@H]1CN([C@@H](C)CO)C(=O)Cc2cc(NC(=O)Nc3cccc4ccccc34)ccc2O[C@@H]1CN(C)Cc1ccc(C(=O)O)cc1,0.0,0.8,-0.3,-33.0,3.7,2.0
CCn1c(SCc2ccc(F)cc2)nc2c(c1=O)SCC2,-2.7,-4.1,9.2,11.2,-0.3,5.6
CCN(CC)C(=O)CSC(Nc1ccc(F)cc1)=C(C#N)C#N,6.5,5.9,5.6,.,8.8,-3.7

# Exported with two lines to a compound: 13 of the compounds above.
# The line under a structure holds: PAX8 reporter | DENV2 CPE rescue | EWS-Fli inh | LGR2 inh | CASP6 VEID inh | SIRT5 block
> O=C(N/N=C/c1ccoc1)c1cc(Br)ccc1O
 : -40.8 | ? | . | -3.2 | 18.0 | -0.1
> CN(C)CCCNC(=S)NCCNc1nc2cc3c(cc2cc1C#N)OCO3
 : 6.8 | 2.6 | 7.0 | 1.7 | -33.7 | .
> CC(=O)N(C)C[C@H]1Oc2cc(-c3ccc(C#N)cc3)ccc2S(=O)(=O)N([C@@H](C)CO)C[C@@H]1C
 : . | -12.5 | -4.6 | 18.0 | 1.1 | 6.7
> CN1CCNC(=O)C1CC(=O)NCCc1ccccc1F (configuration not stated)
 : -11.0 | 7.5 | 0.3 | 10.7 | 2.8 | -1.6
> O=C(CSc1nnc2c(Cl)cc(C(F)(F)F)cn12)Nc1ccc2c(c1)OCO2
 : 9.0 | . | . | . | . | .
> CCN(CC)S(=O)(=O)c1ccc2c(c1)N(CC(=O)NCC1CCCO1)C(=O)CO2 (configuration not stated)
 : 3.2 | 10.0 | . | -5.9 | -0.7 | -0.2
> Cc1cc(NC(=O)COc2cccc([N+](=O)[O-])c2)no1
 : . | -4.5 | . | 8.8 | -2.5 | -11.8
> Cc1ccc2c(c1)N(C(C)C(=O)NCc1ccccn1)C(=O)CO2 (configuration not stated)
 : 15.5 | 7.9 | -1.2 | 0.0 | -1.2 | -5.7
> O=C1NCC2=C1C(c1ccccc1)Nc1ccccc1N2 (configuration not stated)
 : . | . | . | -7.3 | . | .
> C[C@@H]1CCCCO[C@H](CN(C)C(=O)NC2CCCCC2)[C@@H](C)CN([C@@H](C)CO)C(=O)c2cc(NC(=O)C3CCCCC3)ccc2O1
 : 38.6 | 6.1 | 15.2 | 17.2 | 2.3 | 7.7
> COC(=O)c1cc(NC(=O)c2c(Cl)cnn2C)cc(C(=O)OC)c1
 : 45.0 | -5.8 | 3.7 | -10.3 | 4.5 | 0.1
> C[C@H]1CN([C@@H](C)CO)C(=O)Cc2cc(NC(=O)Nc3cccc4ccccc34)ccc2O[C@@H]1CN(C)Cc1ccc(C(=O)O)cc1
 : 0.0 | 0.8 | -0.3 | -33.0 | 3.7 | 2.0
> CCn1c(SCc2ccc(F)cc2)nc2c(c1=O)SCC2
 : -2.7 | -4.1 | 9.2 | 11.2 | -0.3 | 5.6

# Back to the main list, starting two compounds before the break.
SMILES,PAX8 reporter,DENV2 CPE rescue,EWS-Fli inh,LGR2 inh,CASP6 VEID inh,SIRT5 block
CCn1c(SCc2ccc(F)cc2)nc2c(c1=O)SCC2,-2.7,-4.1,9.2,11.2,-0.3,5.6
CCN(CC)C(=O)CSC(Nc1ccc(F)cc1)=C(C#N)C#N,6.5,5.9,5.6,.,8.8,-3.7
C[C@@H]1CN([C@H](C)CO)C(=O)Cc2cc(NC(=O)Nc3cccc4ccccc34)ccc2O[C@H]1CN(C)Cc1ccc(C(=O)O)cc1,8.3,-4.2,-0.6,-0.1,6.0,1.9
O=c1oc2c(O)cccc2cc1-c1nc2ccccc2[nH]1,-86.1,-3.2,-28.9,-9.1,.,-1.0
COc1ccc(C2NC(=S)NC3=C2N2CCC3CC2)cc1 (configuration not stated),5.4,-2.4,-4.1,.,2.0,-11.1
CCN(C(=S)NCc1ccccc1)c1ccccc1,9.2,-2.5,3.3,18.1,2.7,-5.9
CCCCNc1ccc(C(=O)Nc2cccc(C)n2)cc1[N+](=O)[O-],.,.,.,-33.5,.,.
Cc1cc(N/N=C\c2ccc(Br)cc2)nc(-n2nc(C)cc2C)n1,12.1,-6.2,27.9,-2.6,5.5,-0.8
O=C(N/N=C/c1cccnc1)c1cccc(S(=O)(=O)Nc2cccc(Cl)c2)c1,7.5,?,-7.3,-1.7,-2.1,-4.1
C/C(=N\NC(=O)c1ccc(NS(=O)(=O)c2cccs2)cc1)c1cccs1,1.7,0.4,4.5,2.3,.,10.9
C[C@H](NS(=O)(=O)c1ccc(Cl)cc1)C(=O)OCC(=O)c1ccc[nH]1,11.2,-5.9,-2.9,-15.5,1.0,-2.6
COc1cc2c(cc1OC)CN(C(=O)c1ccccc1C(=O)O)CC2,9.9,.,.,.,.,.
CCN(CC)CC(=O)N1c2ccccc2Oc2c(c(=O)n(C)c(=O)n2C)C1c1cccc([N+](=O)[O-])c1 (configuration not stated),-6.8,-1.0,-6.4,10.4,0.5,0.6
Cc1cc(C)n2nc(SC(C)C(=O)Nc3ccccc3F)nc2n1 (configuration not stated),-3.0,0.3,3.3,17.1,-0.7,.
COc1cnc(-c2ccccn2)nc1Oc1ccc(F)cc1F,-133.4,2.7,-38.2,-31.9,0.3,0.2
COc1ccccc1N1C(=O)N(CC(=O)C(C)(C)C)c2ccccc2S1(=O)=O,-11.0,-1.8,-9.8,-4.3,-3.2,-3.8
C[C@H](CO)N1C[C@H](C)[C@H](CN(C)S(=O)(=O)c2ccc(F)cc2)Oc2ccc(NS(C)(=O)=O)cc2C1=O,.,-9.6,1.2,20.1,-3.8,2.0
CN1CCN(c2oc(/C=C/c3ccccc3)nc2C#N)CC1,15.9,7.5,1.9,4.4,-1.0,-5.0
COc1ccccc1NC(=O)C(=O)N(c1cccnc1)C(C(=O)NC(C)(C)C)c1ccccc1F (configuration not stated),-8.0,-1.7,-0.5,19.4,-1.6,-3.4
O=C(O)c1ccc(/C=C2\CCCc3c2nc2ccccc2c3C(=O)O)cc1,-12.0,-1.1,.,29.2,.,-3.1
CC(C)(C)NC(=O)CN(C(=O)CCN1CCCc2ccccc21)C(C)(C)C,.,-5.3,8.8,-0.1,0.3,1.2

# Only part of the results is shown, so the mix of outcomes need not match the whole.
